# Screening results (PubChem BioAssay)
# AmpC inh no det: AmpC beta-lactamase inhibition, detergent-free assay; P00811; AmpC nitrocefin hydrolysis, absorbance 480 nm, no detergent; potencies from a single point are estimates; Potency, µM (series often up to 28.7 µM), for inactives: at the highest dose activity change, negative = inhibition; 71,000 tested, 1.8% active; AID 585; active = falling curve, for most hits resting on a single point; inconclusive = weak or doubtful change; inactive = flat or rising curve; also: % of control where 0% means no effect; about half of the hits show no inhibition at the top dose; a quarter of the inactives give rising signals
# Target sequence (P00811 whole entry, looked up): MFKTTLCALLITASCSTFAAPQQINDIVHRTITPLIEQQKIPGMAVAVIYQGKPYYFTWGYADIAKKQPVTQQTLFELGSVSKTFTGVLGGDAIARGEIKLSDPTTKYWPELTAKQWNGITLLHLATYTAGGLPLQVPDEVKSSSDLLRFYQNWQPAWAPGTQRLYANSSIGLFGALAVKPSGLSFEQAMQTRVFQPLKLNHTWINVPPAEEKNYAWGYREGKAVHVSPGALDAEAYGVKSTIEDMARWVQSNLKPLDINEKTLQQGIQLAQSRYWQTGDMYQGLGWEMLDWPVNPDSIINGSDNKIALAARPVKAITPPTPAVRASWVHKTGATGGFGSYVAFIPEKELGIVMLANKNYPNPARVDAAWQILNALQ
#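 Enzyme, pH 7.0 phosphate. Compound titrations were pre-incubated with AmpC for 15 min at room temperature before nitrocefin (stock 800 uM) addition; product formation was recorded at 480 nm every 20 s for 4 min.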
# Starred values were filed as active, the others as inactive; ? = inconclusive; [ ] = dose if it differs, or a comment. Potency is read from the fitted curve at half-maximal effect.
SMILES,AmpC inh no det
CCOc1cccc(N2C(=O)CC(NCc3ccc(S(N)(=O)=O)cc3)C2=O)c1 (stereo not drawn),-1%
Cn1cccc1C(=O)NC(=O)COC(=O)Cc1coc2ccc3ccccc3c12,13µM*
O=C(CSc1ccc2nnc(-c3ccccn3)n2n1)N1CCN(c2ccccc2)CC1,43%
COc1cc2cc(C(c3nnnn3C(C)(C)C)N3CCc4ccccc4C3)c(=O)[nH]c2cc1OC (stereo not drawn),127%
CCOc1ccc(N2Cc3ncccc3C2=O)cc1,11%
NC(=O)c1ccccc1N/C=C/C(=O)c1ccco1,-1%
COC(=O)c1c(NC(=O)c2nc3ccccc3s2)sc2c1CCN(C(C)=O)C2,46%
O=C(c1ccccc1)c1ccncc1,-3%
CCn1c(SCC(=O)Nc2nc(C)cs2)nnc1-c1ccco1,14%
COc1ccc(NCCNc2ccc(OC)cc2)cc1,10%
O=C(c1ccco1)N1CCN(c2ccc(Cl)cc2)CC1,19%
CCCCCCc1nnc(NC(=O)OCC)s1,4%
Cc1ccc(N(O)C(=O)OCCNC(=O)Nc2ccccc2)cc1,-19%
N/C(=N\O)C1COc2ccccc2O1 (stereo not drawn),2%
Cc1nc2sc(C(c3cccs3)N3CCN(Cc4ccccc4)CC3)c(O)n2n1 (stereo not drawn),6%
COCC(=O)N1CCC2(CCN(Cc3cc(C(F)(F)F)cc(C(F)(F)F)c3)CC2)CC1,-2%
Cc1cnc(CNc2ncnc3ccc(-c4ccc5c(c4)OCO5)cc23)cn1,135%
COCC(=O)N1CCC2(CC1)CN(C(=O)Nc1cccc(F)c1)C2,5%
COc1ccc(C(=O)OCc2cc3cccc(C)c3[nH]c2=O)cc1,1%
COc1cc(S(=O)(=O)N2CCOCC2)ccc1NC(=O)COC(=O)C12CC3CC(CC(C3)C1)C2,87%
COc1cc2c(cc1OC)CN(C(=O)COc1ccc(C)c(C)c1)CC2,-6%
CCCCCn1c(CNC(=O)CC)nc2ccccc21,50%
Clc1cccc(NCc2nnc(SCc3ccccc3)o2)c1,4%
CCCCOC(=O)c1ccc(OC(=O)c2cccnc2)cc1,38%
O=C(NCc1nnc(SCC(=O)N2CCCC2)o1)c1ccccc1F,-10%

# In the list so far, these contain an NH in an aromatic ring:
SMILES,AmpC inh no det
COc1cc2cc(C(c3nnnn3C(C)(C)C)N3CCc4ccccc4C3)c(=O)[nH]c2cc1OC (stereo not drawn),127%
COc1ccc(C(=O)OCc2cc3cccc(C)c3[nH]c2=O)cc1,1%

# Returning to the listing with the 2 entries that preceded the break.
SMILES,AmpC inh no det
CCCCOC(=O)c1ccc(OC(=O)c2cccnc2)cc1,38%
O=C(NCc1nnc(SCC(=O)N2CCCC2)o1)c1ccccc1F,-10%
COc1cccc2[nH]c3c(N4CCN(Cc5ccc6c(c5)OCO6)CC4)ncnc3c12,60%
Nc1ccc2oc(-c3cccc4ccccc34)nc2c1,76%
CCc1ccccc1N1CC(C(=O)O)CC1=O (stereo not drawn),13%
O=C(NCCc1ccccc1)C1CCCN(S(=O)(=O)c2cccs2)C1 (stereo not drawn),4µM*[single pt active]
O=C(Nc1ccc(N2C(=O)C3C4C=CC(C4)C3C2=O)cc1)Nc1nncs1 (stereo not drawn),4µM*[single pt active]
Cn1c(=O)c2c(-c3ccc(C(C)(C)C)cc3)n(N3CCOCC3)cc2n(C)c1=O,126%
CCCc1cc(C(=O)NCc2ccc(OC)cc2)no1,-14%
CN(C(=O)c1cccs1)c1ccccc1C(=O)O,-12%
Cc1cc(NC(=O)c2cc(C3CC3)on2)n(-c2ccccc2)n1,6%
CCCCNC(=O)CN(C1CCCCC1)S(C)(=O)=O,-3%
O=C(COc1ccccc1Cl)Nn1cnnc1,1%
O=C(CSc1ccc2nnc(-c3cccnc3)n2n1)N1CCOCC1,10%
CC1(C(=O)NCCN2CCOCC2)C=CC2(CCCCC2)N1C(=O)c1ccccc1 (stereo not drawn),30%
CCCN(CCC(=O)Nc1ccccc1F)CC1CC1,-3%
CCN1CCCC1CN(Cc1cc2cc(C)cc(C)c2[nH]c1=O)C(=O)Nc1ccccc1OC (stereo not drawn),68%
C#C[C@]1(O)CC[C@@H]2[C@H]3CCC4=Cc5oncc5C[C@]4(C)[C@@H]3CC[C@@]21C,12%[12.8 µM]
O=C(NCc1ccco1)c1cccc2c1C(=O)N(C1CCCCC1)C2,14%
O=c1cc(-c2ccc(Cl)c(Cl)c2)[nH][nH]1,13µM*[single pt active]
Cc1cc(C)c2c(n1)nn1c(N3CCN(c4cccc(Cl)c4)CC3)cc(C)nc21,16%
CC1=C/C(=C(/c2ccc(O)c(C)c2)c2ccccc2C(=O)O)C=CC1=O,-10%[5.75 µM]
CC1=C(C(=O)Nc2ccccn2)C(c2cccnc2)n2nnnc2N1 (stereo not drawn),-2%
COc1ccc(CN2C(=O)c3cccnc3C2Nc2cc(Cl)c(OC)cc2OC)cc1 (stereo not drawn),77%
O=C(O)COc1cccc2nsnc12,-9%
CC(=O)Nc1cc2c(cc1C(=O)c1ccc(C)cc1)OCCO2,5%
Cc1occc1-c1nnc(SCC(=O)NCc2ccco2)n1CC(C)C,85%

# (further entries)
SMILES,AmpC inh no det
CC1(C)NC(=O)N(CCCCOc2ccc3c(c2)CCC3)C1=O,79%
O=C(NC1CCCCC1)C(c1ccco1)N(Cc1ccco1)C(=O)c1ccco1 (stereo not drawn),6%
COc1ccc(-n2nnnc2SCC(=O)N2C(C)CCCC2C)c(OC)c1 (stereo not drawn),46%
Cc1ccc(C2/C(=C(\O)c3c(C)nc4ccccn34)C(=O)C(=O)N2CCCN(C)C)o1 (stereo not drawn),2%
N#CCCNCC1(c2ccccc2)CCCC1,18%
Cc1ccc(N(C(=O)c2ccc(S(=O)(=O)N3CCOCC3)cc2)C2C=CS(=O)(=O)C2)cc1 (stereo not drawn),46%
C=CCn1c(SCn2nnc3ccccc3c2=O)nnc1C1CCCCC1,23%
Cn1nc(-c2ccccc2F)c2cc(C(=O)N3CCN(C(=O)c4ccco4)CC3)sc21,134%
COC(=O)c1ccc2c(=O)n3c(nc2c1)SCC(c1ccccc1)=N3,2%
CCOC(=O)N1CCC(NC(=O)C2CCC(CNS(=O)(=O)c3ccc(OC)cc3)CC2)CC1 (stereo not drawn),25%
Cc1ccc(C)c(S(=O)(=O)C(C#N)c2nc3ccccc3nc2N2CCCC2)c1 (stereo not drawn),4%
Fc1ccccc1OCCCCn1cncn1,1%
Cc1c(C(=O)OCC(C)C)[nH]c2c1C(=O)CC(c1ccco1)C2 (stereo not drawn),4%
Cc1c(C2N3CC4(C)CN2CC(C)(C3)C4=O)c2ccccc2n1C (stereo not drawn),32%
CCOc1ccc(OCC)c(NC(=O)Cn2cccc2)c1,14%
Cn1c(SCc2nc(-c3ccc(Cl)cc3)no2)nnc1-c1ccco1,51%
CCCN(CCO)Cc1cccc(Br)c1,-16%
CCN(CC)CCOC(=O)C1(c2ccccc2)CCOCC1,16%
Cc1nnc(NC(=O)C(C)Sc2nncn2C)s1 (stereo not drawn),0%
COc1ccc(-c2csc(N(CCCN(C)C)C(=O)c3cccs3)n2)cc1,75%
O=C(CN1C(=O)C2C3C=CC(C3)C2C1=O)NCCC1=CCCCC1 (stereo not drawn),7%
O=C(NCc1ccc(Cl)c(Cl)c1)c1ccco1,0%
N#CCSc1nnc(COc2cccc3ccccc23)n1-c1cccc(Cl)c1,72%
C/C(N)=C(/C#N)C(=O)CSc1n[nH]c(-c2ccccc2Br)n1,?
C=CCn1c(SCC(=O)Nc2c(C)cccc2C)nnc1-c1ccncc1,-5%

# The closing seven records of the part above are carried over, then new ones follow.
SMILES,AmpC inh no det
Cc1nnc(NC(=O)C(C)Sc2nncn2C)s1 (stereo not drawn),0%
COc1ccc(-c2csc(N(CCCN(C)C)C(=O)c3cccs3)n2)cc1,75%
O=C(CN1C(=O)C2C3C=CC(C3)C2C1=O)NCCC1=CCCCC1 (stereo not drawn),7%
O=C(NCc1ccc(Cl)c(Cl)c1)c1ccco1,0%
N#CCSc1nnc(COc2cccc3ccccc23)n1-c1cccc(Cl)c1,72%
C/C(N)=C(/C#N)C(=O)CSc1n[nH]c(-c2ccccc2Br)n1,?
C=CCn1c(SCC(=O)Nc2c(C)cccc2C)nnc1-c1ccncc1,-5%
CCOCc1nc(C)c(Cl)c(NS(=O)(=O)c2ccc(N)cc2)n1,-13%
Nc1cc(-c2ccc(Br)cc2)nn1S(=O)(=O)c1ccccc1,-20%
Cc1nn(C(=O)c2cc3sccc3[nH]2)c(C)c1C,-4%
CCOC(=O)c1cc2sccc2n1CC(=O)N1CCN(C(=O)c2ccco2)CC1,56%
Cc1noc(C)c1C(=O)N1CCC2(CC1)CN(c1ncccn1)C2,7%
CC(C)Cc1nc2oc3c(NCc4cccnc4)ncnc3c2c2c1CCC2,16%
O=C(CNS(=O)(=O)c1ccc(Br)s1)Nc1ccc2c(c1)OCCO2,-18%
O=C(O)C1CC(=O)N(CCc2c[nH]c3ccccc23)C1 (stereo not drawn),10%
CC(=O)Nc1ccc(Cc2ccc3[nH]c(=O)cc(C)c3c2)cc1,4%[5.75 µM]
Oc1ccc(Cc2nccc3cc(O)c(O)cc23)cc1O,-10%[5.75 µM]
COCCOCCn1c(CCCO)nc2ccccc21,-2%
CCC(C(=O)c1ccc(O)cc1)c1ccccc1 (stereo not drawn),-4%
CCOc1ccc(-c2nnc3ccc(SCC(=O)N4CCN(c5ccccc5)CC4)nn23)cc1,62%
Cc1nn2c(N3CCN(C(=O)c4ccco4)CC3)cc(C(C)(C)C)nc2c1-c1ccccc1,83%
CCOc1ccccc1N(CC(=O)NC(C)(C)C)C(=O)c1ccc(CN2CCOCC2)o1,42%
CC(C)Cc1c(O)nc(SCCN2CCOCC2)[nH]c1=O,-6%
C=CCNC(=O)Cn1nc(-c2ccccc2)ccc1=O,-3%
CCc1nc(OCCN(C)C)c2oc3ccccc3c2n1,-2%
O=C(c1nc(-c2ccccc2)n(-c2ccccc2)n1)N1CCCCCC1,24%
COc1ccc(N2CCN(C(c3cccs3)c3nnnn3C3CCCC3)CC2)cc1 (stereo not drawn),36%
O=C(CCN1CCCCCC1)Nc1ccc(F)cc1,-13%
O=C(c1cc(C(F)(F)F)cc(C(F)(F)F)c1)N1CCC2(CCCN(c3ccncc3)C2)CC1,31%
CCn1c(=O)c2c(nc(SCc3ccccn3)n2C)n(C)c1=O,1%
CCc1c(C)sc(NC(=O)c2cc(-c3cc(OC)ccc3OC)on2)c1C#N,-5%
Cc1ccc(C)c(N2CCN(CCCNC(=O)Cn3cc4c(n3)CCCCC4)CC2)c1,112%

# Later entries.
SMILES,AmpC inh no det
c1ccc(Nc2cccc3ccccc23)cc1,-12%
O=C(Cc1cn2ccsc2n1)Nc1nc2c(s1)CCCC2,-10%
CC1(C)Cc2c(sc3c2c(=O)n(Cc2ccccc2)c2nncn32)CO1,6%
O=C1CN2C(=Nc3ccc(Cl)cc3C2c2ccccc2)CN1 (stereo not drawn),62%
Cc1cc2c(c(=O)n1CCN(C)C)C(c1ccncc1)C(C#N)=C(N)O2 (stereo not drawn),-10%
Cc1cccc([N+](=O)[O-])c1,-8%
COc1ccc(C2c3sc(=O)[nH]c3SC3C4CCC(C4)C23)cc1 (stereo not drawn),-15%
O=C(C(c1ccccc1)c1ccccc1)N1CCN(CC(O)COc2ccccc2)CC1 (stereo not drawn),125%
COc1ccc(C(OC(=O)c2ccco2)C(=O)NCC2CCCO2)cc1 (stereo not drawn),11%
O=C(CCS(=O)(=O)Cc1ccccc1)NC1CCCCC1,-1%
O=C1CC(Nc2ccc(N3CCOCC3)cc2)C(=O)N1c1cccc(C(F)(F)F)c1 (stereo not drawn),34%
Cn1ncc2c1ncn1nc(CCc3ccccc3)nc21,7%
CCOC(=O)N1CCN(C(=O)CS(=O)(=O)c2cn(Cc3cccc(F)c3)c3ccccc23)CC1,116%
Cc1noc(NS(=O)(=O)c2ccc(NC(=O)CCC3CCCCC3)cc2)c1C,-21%
Cc1noc(C)c1C(=O)N1CCC[C@@]2(CCN(Cc3ccccc3)C2)C1,6%
CCN1CCN(CCCNc2ncnc3nc[nH]c23)CC1,40%
CCCn1c2ccccc2c2cc(C(=O)O)ccc21,-19%
CC1CC(C)CN(S(=O)(=O)c2ccc3c(c2)oc(=O)n3CC(=O)N2CCOCC2)C1 (stereo not drawn),6%
Cc1cc(NCCCN2CCOCC2)n2nc(C)c(-c3ccc(F)cc3)c2n1,140%
CC[C@](N)(C(=O)O)C(C)C,-7%[5.75 µM]
COc1ccc(NC(=O)CSc2nccn2-c2ccccc2)c(OC)c1,5%
COc1cccc(-c2cc(C(=O)Nc3cnn(Cc4ccccc4C)c3)no2)c1,-2%
O=C(c1cccc(F)c1)N1CCc2ccccc21,5%
c1cncc(-c2cc(NCc3cccs3)ncn2)c1,8%
CCN1C(=O)c2ccccc2S(=O)c2ccc(C(=O)N3CCCCCC3)cc21 (stereo not drawn),51%

# A draw from above in order of molecular weight, low to high:
SMILES,AmpC inh no det
CC[C@](N)(C(=O)O)C(C)C,-7%[5.75 µM]
COc1ccc(NC(=O)CSc2nccn2-c2ccccc2)c(OC)c1,5%
CC1CC(C)CN(S(=O)(=O)c2ccc3c(c2)oc(=O)n3CC(=O)N2CCOCC2)C1 (stereo not drawn),6%

# Next results follow:
SMILES,AmpC inh no det
O=C(O)C1(c2cccc(Cl)c2)CCC1,-5%
CC(C)C[C@@H](CC(=O)N[C@H](CC(=O)N[C@@H]1CCCC[C@H]1C(=O)N[C@H](CC(=O)N[C@@H](CCC(=O)O)CC(=O)O)Cc1ccccc1)C(C)C)NC(=O)[C@@H]1CCCC[C@H]1N,143%
COc1ccc2[nH]cc(CCNc3ccnc(-c4cccnc4)n3)c2c1,9%
Nc1nc(SCc2ccc(Cl)cc2Cl)n[nH]1,-8%
O=C(Oc1cccc(C(=O)N2CCOCC2)c1)c1ccc(Br)cc1,52%
CC(=O)c1c(C)[nH]c(C(=O)N2CCN(c3ncccn3)CC2)c1C,-2%
CCCN(CCC)c1nc2ccccc2n2c(C)nnc12,120%

# This is a subset; the hit share may differ from the screen's.
